RN4220 kill: S. aureus RN4220 growth inhibition | OD600, 16 h | inhibition, % (test concentration not listed) | actives 0.33% (n = 330,000);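 active means z-score of -3 or lower and OD600 up to 0.18 on both plates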;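 further: plate controls were untreated cells for no effect and reference antibiotic for full effect; stock transfer was 100 nL into about 80 µL; one replicate is shown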
Autofluor counter: compound fluorescence in toxin protease inhibitor counterscreen | actives 3.1% (n = 360,000) | fluorescence intensity (test concentration not listed) | compound autofluorescence counterscreen, microsphere flow cytometry; hits give high values;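 active means at least 3 SD above the mean of all compounds, about 16000 in these data; inconclusive means too few beads counted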;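 further: 100 nL of 1 mM stock went into each well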
BJeLR viability: kills HRASV12-expressing BJeLR cells; BJeLR (HRASV12) viability, CellTiter-Glo ATP luminescence, 48 h; reference of the scale not given here; inhibition, % (concentration not given with the values); actives 0.17% (n = 300,000); AID 1554;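 active means replicate mean above 50%; inconclusive means above 50% but judged a plate artefact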;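 further: 50 nL library stock added to about 25 µL; numbers are from one replicate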
Mtb hypoxia rep: Mtb hypoxia fluorescent reporter inhibition. M. tuberculosis hypoxia-regulated fluorescent reporter, fluorescence. fluorescence inhibition, % (test concentration not listed). actives 0.1% (n = 300,000);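 active means 35 to 45% if threefold the growth effect, above 45% if 1.5-fold the growth effect; inactive means the rest, general growth blockers included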;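 further: wells of about 50 µL received 100 nL stock; 0% = vehicle wells and 100% = reference inhibitor wells; whole bacteria with a GFP reporter of the hypoxia response; strong numbers were not always called active; many hits fall short of the cut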
Sa ugtP lethal: growth inhibition of S. aureus ugtP deletion strain | S. aureus RN4220 ugtP deletion, OD600 growth, 16 h; some inactives read as strong as hits | growth inhibition, % (no concentration beside the values) | actives 0.54% (n = 330,000) | AID 1259309;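 active means z-score under -3 and OD600 up to 0.15 on both plates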;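 further: plate controls were untreated wells for no effect and antibiotic for full effect; wells of about 80 µL received 100 nL stock; the first replicate is given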
PrP 5UTR inh: suppresses PrP 5' UTR mRNA reporter expression; cell-based PrP 5' UTR mRNA reporter, plate reader; inhibition, % (no concentration beside the values); actives 0.35% (n = 340,000); AID 488862;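 active means every replicate at 50% or more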;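 further: 0 = median of the neutral control wells; tested in H4 reporter cells; numbers are from one replicate; inactives centre near -14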
Mtb hypoxia rep growth: also measured in Mtb hypoxia rep; calls as there; growth inhibition, %; measured here: M. tuberculosis growth (absorbance);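 0% = vehicle and 100% = reference antibiotic; read after six days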
* marks the source's active call; other numbers are inactive results; ? = inconclusive; nt = not tested or not shown; & = joins results of further samples. Hits appear at their usual frequency; overall some 4% were active at least once.

SMILES	RN4220 kill	Autofluor counter	BJeLR viability	Mtb hypoxia rep	Mtb hypoxia rep growth	Sa ugtP lethal	PrP 5UTR inh
CCCCOc1ccc(C=NNC(=O)C2CCCNC2=O)cc1 (configuration not stated)	6.7	nt	nt	-2	-4	5	nt
Cc1ccc(S(=O)(=O)NC(=O)c2ccccc2F)cc1	-2.0	5430	9	-8	6	-11	-5
OCCNCCCCOc1ccc(OCc2ccccc2)cc1	-0.1	2046	-3	16	3	25	-70
CCc1ccc(C(C(=O)NC2CCCCC2)N(C(=O)c2ccccn2)c2cccnc2)cc1 (configuration not stated)	-0.8	nt	-2	-7	2	3	nt
CCOC(=O)Cn1ncc2c(=O)oc3ccccc3c21	5.8	3103	16	19	18	5	-32
CC(=O)Nc1ccc(NC(=O)C(C)OC(=O)C2(c3ccccc3F)CCCC2)cc1 (configuration not stated)	3.7	6762	nt	6	9	-6	-1
O=C(O)CC1c2cc(F)ccc2S(=O)(=O)N1Cc1ccccc1 (configuration not stated)	5.4	nt	nt	18	14	10	nt
CCOC(=O)CNC(=O)CNC(=O)c1ccc(OC)cc1	4.3	3324	7	nt	nt	2	-14
CC(CCc1ccccc1)NC(=O)N1CCOCC1 (configuration not stated)	5.3	2154	-4	9	10	5	-17
COCCNC(=O)c1csc2c1CCCC2	8.4	9719	-1	nt	nt	8	-25
O=C(Nc1ccc([N+](=O)[O-])cc1)C1C(c2ccccc2)=C1c1ccccc1	-0.4	12220	2	-3	0	-12	-20
COc1ccc(N2CCN(Cc3nc(-c4ccccc4)no3)CC2)cc1	16	4560	10	12	13	6	-15
O=c1c([N+](=O)[O-])cc(C(F)(F)F)cn1Cc1c(Cl)cccc1Cl	2.4	9911	2	24	32	-2	-6
CC(C)c1ccc(NC(=O)c2ccccc2NC(=O)C2CC=CCC2C(=O)O)cc1 (configuration not stated)	3.4	?	nt	8	12	6	-44
COc1ccc(N=C2NC(=O)/C(=C\C=C\c3ccccc3)S2)cc1	nt	3203	-2	nt	nt	nt	-4
Cc1cccc(C(=O)NCC(c2ccco2)N(C)C)c1 (configuration not stated)	5.7	4348	-5	8	12	5	-23
COc1ccc(S(=O)(=O)N2CCN(c3ccc4nnc(-c5ccc(F)cc5)n4n3)CC2)cc1	-6.2	5812	0	6	6	16	4
CC1CC(C)CN(C(=O)COC(=O)c2cccc([N+](=O)[O-])c2)C1 (configuration not stated)	10	4400	4	-3	2	-61	-2
O=C(N/N=C/c1ccccc1)c1ccc(N2CCOCC2)c([N+](=O)[O-])c1	nt	2135	19	nt	nt	nt	-47
CN(Cc1ccc(F)cc1)C(=O)CNC(=O)c1cccs1	1.1	3437	nt	9	6	3	-11
COCCNC(=O)c1cc2sccc2n1C	3.3	3296	0	13	17	-1	-19
COc1ccc(NC(=O)CN2CCN(c3ccccc3F)CC2)cc1	-1.6	4726	-2	nt	nt	1	-10
COC(=O)c1c(NC(C)=O)sc2c1CCN(Cc1ccccc1)C2	14	6160	7	-4	9	6	-5
CCOc1ccc(NC(=O)COC(=O)COc2cccc3c2OC(C)(C)C3)cc1	0.6	6392	-16	6	0	4	-11
COc1ccc(CCNC(=O)NC(C(F)(F)F)C(F)(F)F)cc1OC	-1.6	4158	-7	nt	nt	2	-6
Clc1ccccc1CSc1nc2ccncc2[nH]1	-12	5505	11	4	13	-13	-52
CCCCNC(=O)C1CCCN1C(=O)Nc1cccc(OC)c1 (configuration not stated)	5.8	7133	-6	11	5	8	-10
Cc1cccc(NC(=O)C(C)SCc2nc3sc(C)c(C)c3c(=O)[nH]2)n1 (configuration not stated)	2.4	6633	-4	0	-5	-2	-33
COc1ccc(OC)c(-n2c(SCC(=O)NCC3CCCO3)nc3ccccc3c2=O)c1 (configuration not stated)	4.4	4005	nt	4	1	4	-12
Cc1ccc(NC2=NCC(=O)N2CCc2ccccc2)cc1C	2.7	3200	0	nt	nt	7	-26

An excerpt of these results, in markdown.
| Structure | RN4220 kill | Autofluor counter | BJeLR viability | Mtb hypoxia rep | Mtb hypoxia rep growth | Sa ugtP lethal | PrP 5UTR inh |
| --- | --- | --- | --- | --- | --- | --- | --- |
| Cc1cccc(NC(=O)C(C)SCc2nc3sc(C)c(C)c3c(=O)[nH]2)n1 (configuration not stated) | 2.4 | 6633 | -4 | 0 | -5 | -2 | -33 |
| CCCCNC(=O)C1CCCN1C(=O)Nc1cccc(OC)c1 (configuration not stated) | 5.8 | 7133 | -6 | 11 | 5 | 8 | -10 |

Following part.
SMILES	RN4220 kill	Autofluor counter	BJeLR viability	Mtb hypoxia rep	Mtb hypoxia rep growth	Sa ugtP lethal	PrP 5UTR inh
O=C(NNC(=O)c1cnccc1C(F)(F)F)c1ccccc1	39	6327	-1	-1	6	20	-44
CCOC(=O)c1cnn(-c2nc3c(C)cccc3s2)c1C	-9.7	3035	0	13	6	-6	-12
C/C(=N\Nc1ccc(S(N)(=O)=O)cc1[N+](=O)[O-])c1ccco1	nt	4794	4	nt	nt	nt	-14
CN(C)c1ccc2c(O)cc(=O)n(C)c2c1	11	10890	5	6	3	0	-27
CCOc1ncccc1C(=O)OCC(=O)NC(=O)NC(C)C	nt	4305	15	nt	nt	nt	-28
COc1ccc(Cn2cnc3c4cc(F)ccc4n(C)c3c2=O)cc1	4.2	6195	-2	15	-3	12	nt
Cc1cccc(C)c1NC(=O)CCCSc1nnc(N)s1	8.3	4673	-11	7	6	5	-12
Cn1c(CNC(=O)c2ccc3c(c2)OCO3)nnc1SCC(=O)Nc1ccccc1F	2.0	3256	-5	10	8	0	-12
CC(C)OP(=O)(OC(C)C)C(Nc1cccc(C(=O)O)c1)c1ccccc1 (configuration not stated)	1.5	4596	-10	2	-10	6	1
Cc1cc(NC(=O)CCC(=O)N(CC(=O)NC2CCCC2)Cc2ccccc2Cl)no1	0.7	4662	nt	nt	nt	3	-2
O=C(Nc1ccc(N2CCOCC2)cc1)c1cnccn1	1.7	3576	1	3	0	9	44
O=C(Nc1cccc(C(F)(F)F)c1)c1cc(S(=O)(=O)N2CCCCC2)ccc1N1CCOCC1	-2.2	2709	14	nt	nt	-3	-18
CC(=O)N(C(C)=O)C1=C(C#N)C2(CCCCC2)Cc2ccccc21	-2.4	2788	-5	nt	nt	9	-11
O=C(NC(=S)NCc1ccco1)c1ccccc1	3.3	2484	-8	8	7	-3	-14
COC(=O)C1=C(C)Nc2nnnn2C1c1cc(OC)ccc1OC (configuration not stated)	2.1	4474	-10	-3	3	-4	2
CC1CN(c2nc3c(c(=O)n(Cc4ccc(Cl)cc4)c(=O)n3C)n2C)CC(C)O1 (configuration not stated)	1.8	?	9	-6	1	13	0
C/C(=N\NC(=O)c1ccccc1)c1ccc(N2CCCCC2)cc1	nt	10509	0	nt	nt	nt	-65
COc1cc(NC(=O)c2n[nH]c(=O)c3ccccc23)cc(OC)c1	1.3	4213	5	1	-5	-1	-5
O=C(c1ccccc1)N1CCN(S(=O)(=O)N2CCOCC2)CC1	2.3	4588	4	4	-1	2	-19
Cc1ccc(/C(=N/Nc2ncnc3ccccc23)C(=O)O)cc1	nt	4955	-1	nt	nt	nt	-21
CC(C)NC(=O)c1cc(C(=O)c2cc(Cl)ccc2O)coc1=N	1.6	3561	-8	2	10	-8	-14
O=C(NCCc1ccncc1)c1ccc2nc(Cc3cccc(Cl)c3)oc2c1	1.4	5517	-3	3	1	0	-17
COc1ccc(CNC(=O)CN2CCC(NC(=O)c3ccccc3C)CC2)cc1	3.1	3790	-1	16	1	0	-2
C=CCCC(=O)Nc1nc(C)c(-c2csc(Nc3ccc(Cl)cc3)n2)s1	nt	2914	3	nt	nt	nt	-15
Cn1c(=O)c2ncn(CC(=O)Nc3cccc(-c4nc5ccccc5s4)c3)c2n(C)c1=O	4.1	11293	nt	5	-3	6	-73
CC(C)(C)OC(=O)N[C@H](C(=O)OC(C)(C)C)c1ccc(Br)cc1	-24	3745	nt	6	3	6	-1
CCCSc1cc(=O)n(-c2ccccc2)nc1C(=O)O	2.4	1895	-3	8	7	6	-18
CC1CCCN(CCCNC(=O)c2ccc(CS(=O)(=O)c3c(Cl)cccc3Cl)o2)C1 (configuration not stated)	0.1	6181	2	11	1	5	-4
CC(=O)N1CCN(S(=O)(=O)c2ccc3c(c2)CCC(=O)N3)CC1	1.6	9290	nt	-6	3	-2	2
Cc1ccc(Nc2c(-c3ccc(N4CCOCC4)cc3)nc3ncccn23)cc1	7.3	4263	-16	-3	0	-2	-4
Cn1nc(CC(=O)N2CCN(c3ccccc3)CC2)c2ccccc2c1=O	0.0	9720	5	7	3	8	-4
CN(C)c1nnc(-c2ccc(Cl)cc2)o1	4.0	3866	4	14	12	7	-15
O=C(COC(=O)COc1ccc(Cl)cc1Cl)Nc1cccnc1Cl	4.1	2000	-11	5	-5	5	-10
O=C(O)CCC(=O)N1N=C(c2cccs2)CC1c1ccc(Br)cc1 (configuration not stated)	2.7	3865	-1	14	-2	3	-31
CCOC(=O)c1c(S(=O)(=O)NCC(=O)NCc2ccccc2Cl)c(C)n(C)c1C	1.5	4391	0	-4	1	-2	-11
Cc1sc(NC(=O)CSc2nc(N)n(CC(=O)c3ccccc3)n2)c(C#N)c1C	41	9969	0	5	10	10	-33
c1ccc(Oc2ncnc3ccccc23)cc1	4.8	4142	nt	8	6	-1	-8
Cc1ccc(S(=O)(=O)Nc2ccc(S(=O)(=O)N3CCOCC3)cc2)cc1	1.5	5542	0	0	2	10	-6
COc1cccc(CNC(=O)CN2C(=O)CSc3ccc(S(=O)(=O)N4CCCCC4)cc32)c1	-1.4	4934	1	0	1	5	-16
CC(C)c1ccc(NC(=O)c2cc(S(=O)(=O)N3CCCC3)c[nH]2)cc1	1.1	6254	11	8	3	7	1
Cc1nc2ccc(NC(=O)C3CCN(S(=O)(=O)c4cccs4)CC3)cc2s1	-0.7	6604	0	3	13	-3	6
Cc1cc(C)n2nc(C(=O)Nc3ccc(N4CCOCC4)cc3)nc2n1	0.8	3544	-2	4	4	-1	-10
O=[N+]([O-])C(/C=C(\Cl)[N+](=O)[O-])=C1N(Cc2ccc(Cl)nc2)CCN1Cc1ccc(Cl)nc1	5.3	9205	-6	4	-5	10	-6
CCn1c(COc2ccccc2C)nnc1SCC(=O)N1CCCCC1	7.0	9214	-1	12	7	-5	-24
Cc1cc(NC(=O)COc2ccc(F)c(Cl)c2)no1	-0.9	4730	-9	4	-1	2	-15
CC1(C)CC(=O)C(CS(=O)(=O)c2ccccc2)=C(Cl)C1	3.1	6164	7	-3	2	11	-12
O=C(NCc1ccccn1)C(=O)Nc1cccc2ccccc12	-3.7	4446	3	5	14	3	-26
CCCCCC(=O)N1CCN(CCN=CC2=C(O)CC(c3ccc(OC)c(OC)c3)CC2=O)CC1 (configuration not stated)	6.5&16	?	-1	4&2	11&5	3&17	3&-4
Cc1cc(C(=O)NN=C2CCCC2)c2ccccc2n1	0.4	5820	4	-2	-1	2	-6
COc1cccc(NC(=O)CN2C(=O)NC(c3ccccc3)(c3ccccc3)C2=O)c1	-3.9	3893	-3	-2	2	-14	-18

(further entries)
SMILES	RN4220 kill	Autofluor counter	BJeLR viability	Mtb hypoxia rep	Mtb hypoxia rep growth	Sa ugtP lethal	PrP 5UTR inh
CC(=O)N1CCN(C(=O)CCNC(=O)c2ccc(Br)cc2)CC1	6.6	?	nt	-4	0	9	-14
CCOc1ccc(C(=O)NNC(=O)c2cc(C)oc2C)cc1	-5.8	4800	-7	-4	-2	-8	11
CCOC(=O)C1CCN(S(=O)(=O)c2ccc(-n3cnnn3)c(C)c2)CC1	2.4	9931	1	8	10	1	-38
Cc1ccc(C(=O)NCCCNCCCN(C)C)cn1	-0.7	9581	-3	4	1	-6	-25
CN1CCC(N(C)CC(C)(C)NS(=O)(=O)c2ccccc2)CC1	3.3	3411	6	3	0	5	-6
Cc1ccc(OCCn2cnc(Cl)c2Cl)cc1	0.2	4388	nt	-8	-11	3	-22
CC1=CC(C)(C)N(C(=O)c2ccccc2)c2ccc(C)cc21	-1.4	3282	-4	11	5	16	-36

Full records from above. Values in the order: RN4220 kill | Autofluor counter | BJeLR viability | Mtb hypoxia rep | Mtb hypoxia rep growth | Sa ugtP lethal | PrP 5UTR inh
Shown for Cc1ccc(C(=O)NCCCNCCCN(C)C)cn1 → -0.7 | 9581 | -3 | 4 | 1 | -6 | -25
Shown for CC1=CC(C)(C)N(C(=O)c2ccccc2)c2ccc(C)cc21 → -1.4 | 3282 | -4 | 11 | 5 | 16 | -36
Shown for CCOc1ccc(C(=O)NNC(=O)c2cc(C)oc2C)cc1 → -5.8 | 4800 | -7 | -4 | -2 | -8 | 11

From PubChem BioAssay
